Source: PubChem BioAssay (several laboratories)
Arbovirus inh = antivirals against arbovirus infection; AID 1251; actives 0.37% (n = 200,000); inhibition, % at 10 µM; arbovirus infection cell-based antiviral screen;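 active means inhibition from about 30%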;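 further: bluetongue infection of BSR cells; cell survival read as ATP light after 72 h; 0% = infected wells without compound and 100% = uninfected wells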
RecA intein inh = inhibitors of M. tuberculosis RecA intein splicing; actives 0.75% (n = 290,000); P9WHJ3; inhibition, %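 (about 9 µM by stock and volumes)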; cell-free RecA intein splicing, fluorescence; AID 2221; in the data active means inhibition above about 30%; inconclusive means no clear call, values can overlap the other calls;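 further: 0% = vehicle wells and 100% = reference inhibitor control wells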
Target sequence (P9WHJ3 whole entry, looked up): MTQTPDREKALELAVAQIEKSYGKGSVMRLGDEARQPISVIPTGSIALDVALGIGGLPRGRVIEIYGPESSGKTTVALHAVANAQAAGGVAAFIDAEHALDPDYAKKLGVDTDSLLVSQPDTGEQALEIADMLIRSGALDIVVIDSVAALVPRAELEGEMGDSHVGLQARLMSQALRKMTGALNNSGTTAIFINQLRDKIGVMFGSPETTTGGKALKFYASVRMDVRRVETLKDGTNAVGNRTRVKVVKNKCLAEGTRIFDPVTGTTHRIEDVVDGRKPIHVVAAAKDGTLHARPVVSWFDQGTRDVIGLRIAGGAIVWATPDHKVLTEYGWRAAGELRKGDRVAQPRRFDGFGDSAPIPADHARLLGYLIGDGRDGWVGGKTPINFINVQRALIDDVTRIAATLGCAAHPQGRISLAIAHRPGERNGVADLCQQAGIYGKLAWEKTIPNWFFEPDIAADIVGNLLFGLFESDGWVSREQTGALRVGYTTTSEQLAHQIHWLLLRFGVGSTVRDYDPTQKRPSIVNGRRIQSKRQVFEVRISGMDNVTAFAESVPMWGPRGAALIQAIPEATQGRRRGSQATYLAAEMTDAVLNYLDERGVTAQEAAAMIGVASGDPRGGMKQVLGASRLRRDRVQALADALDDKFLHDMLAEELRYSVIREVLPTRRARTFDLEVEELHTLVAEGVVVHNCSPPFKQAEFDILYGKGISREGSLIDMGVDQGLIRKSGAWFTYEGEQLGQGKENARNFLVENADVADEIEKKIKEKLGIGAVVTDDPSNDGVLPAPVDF
YopH PTP inh = inhibitors of Yersinia enterocolitica YopH tyrosine phosphatase; fluorescence Ex485/Em525; actives 0.16% (n = 140,000); inhibition, %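 (about 10 µM by stock and volumes)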;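 active means inhibition of 50% or more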;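 further: controls were vehicle for no effect and minimum signal wells for full effect; inactives centre near -20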
Mtb betalactam = beta-lactam sensitization of Mtb H37Rv. AID 434955. actives 0.27% (n = 330,000). M. tuberculosis H37Rv growth with meropenem, percent inhibition; hits of this screen are not shown here. inhibition, % at 25 µM;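 active means about 74% or more and at least 40 points above the plate without the antibiotic, then above 30% in a dose series; inconclusive means first-round hits that could not be retested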;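 further: growth measured after seven days incubation then overnight dye step; 0% = bacteria only wells and 100% = bacteria with antibiotic; twin plates without the antibiotic show which effects depend on it; some results filed as inactive read as strong as hits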
Mtb H37Rv = M. tuberculosis H37Rv growth inhibitors, H37Rv strain (AID 1626); M. tuberculosis H37Rv growth inhibition; higher % means a stronger effect; one-dose inhibition, % at 10 µM; IC50 in µM for titrated hits; actives 0.95% (n = 220,000);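 active means confirmed in a dose series; inconclusive means inhibition above 80% but not taken into the dose series; inactive means below 80% or under 30% at every dose of the series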;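 further: bacteria incubated seven days before Alamar blue readout; 0% = bacteria only wells and 100% = bacteria with antibiotic wells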
Arbovirus inh repeat = also measured in Arbovirus inh; calls as there; inhibition, %; measured here: 10K subset replicate screen; many hits read low in the repeat;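 first of two repeat runs on a subset; 0% = infected and 100% = uninfected wells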
Active calls of the source: *; ? = inconclusive; nt = not tested or not shown.

Start of the listing, in advance (seven entries):
SMILES	Arbovirus inh	RecA intein inh	YopH PTP inh	Mtb betalactam	Mtb H37Rv	others
Cc1ccc(S(=O)(=O)NNC(=O)c2ccc(O)cc2)cc1	19	-1.2	-5	?	10%
CCn1nc(C(=O)OCC(=O)c2ccc(F)cc2)c2ccccc2c1=O	-1	1.8	nt	7	4%
FC(F)(F)c1cccc(Cc2noc(CN3CCC(N4CCCCC4)CC3)n2)c1	-3	1.4	nt	-2	-4%
Clc1ccc2c(N/N=C/c3ccccc3Br)ccnc2c1	1	1.6	-7	12	1%
COc1ccccc1NC(=O)CSc1ccc2nnc(-c3ccncc3)n2n1	2	-0.2	-39	-2	-3%
Cc1ccc(S(=O)(=O)C2(S(=O)(=O)c3ccc(C)cc3)CC2)cc1	nt	3.1	nt	5	4%
COc1ccc(C(=O)Cn2cc([N+](=O)[O-])nc2C)cc1	nt	-4.0	nt	-16	nt

The list itself, from the start:
SMILES	Arbovirus inh	RecA intein inh	YopH PTP inh	Mtb betalactam	Mtb H37Rv	others
Cc1ccc(S(=O)(=O)NNC(=O)c2ccc(O)cc2)cc1	19	-1.2	-5	?	10%
CCn1nc(C(=O)OCC(=O)c2ccc(F)cc2)c2ccccc2c1=O	-1	1.8	nt	7	4%
FC(F)(F)c1cccc(Cc2noc(CN3CCC(N4CCCCC4)CC3)n2)c1	-3	1.4	nt	-2	-4%
Clc1ccc2c(N/N=C/c3ccccc3Br)ccnc2c1	1	1.6	-7	12	1%
COc1ccccc1NC(=O)CSc1ccc2nnc(-c3ccncc3)n2n1	2	-0.2	-39	-2	-3%
Cc1ccc(S(=O)(=O)C2(S(=O)(=O)c3ccc(C)cc3)CC2)cc1	nt	3.1	nt	5	4%
COc1ccc(C(=O)Cn2cc([N+](=O)[O-])nc2C)cc1	nt	-4.0	nt	-16	nt
CCOC(=O)c1c2c3c(cccc3[nH]c1=O)C(=O)c1ccccc1-2	0	nt	nt	4	-6%
Cn1c(N)c(C(=O)N/N=C/c2ccccc2)sc1=S	nt	-4.7	nt	3	0%
Cc1nn(-c2ccccc2)c(Cl)c1C(=O)Nc1nnc(C2CCCC2)s1	-4	11	-9	30	7%
CC(C)(C)NC(=O)COC(=O)c1ccccc1Oc1ccccc1	nt	3.6	nt	-1	3%
COCc1c(C(=O)OCC(=O)c2c(N)n(CC(C)C)c(=O)n(C)c2=O)oc2ccccc12	13	2.3	-3	-5	-4%
COc1ccc(NS(=O)(=O)c2ccc(N3CCOCC3)c(NC(=O)c3ccc(F)cc3)c2)cc1	-10	-4.3	-31	-2	0%
Brc1ccccc1/C=N/Nc1ccc2ccccc2n1	39*	-0.1	-16	89	16%
CC(C)(C)NC(=O)CN(C(=O)CCC(=O)Nc1nccs1)c1ccc(F)c(Cl)c1	nt	0.5	nt	1	nt
CCOC(=O)c1c(N)sc(N)c1C(=O)OCC	-2	-10	-11	-6	-5%
COc1cccc(C(=O)N/N=C/c2ccc(Oc3ccc([N+](=O)[O-])cn3)c(OC)c2)c1	-14	3.8	-24	0	6%
Cc1cccc(/C=N/NC(=O)c2cc(-c3cccnc3)nc3c2c(C)nn3-c2ccccc2)c1	-20	-2.8	-9	31	30%
NC(=O)C1=C[C@H](c2ccccc2)C[C@H](OCc2ccc(CO)cc2)O1	3	4.4	nt	-4	-1%
CCc1ccc(NC(=O)CCCN2C(=S)NC(C)(C)CC2C)cc1 (configuration not stated)	8	-1.5	nt	-2	2%
CSc1ccccc1NC(=O)CSc1nnc(Cc2ccccc2)o1	nt	-0.1	nt	-4	nt
Cc1ccc(OCCNC(=O)Cc2ccc(S(=O)(=O)N3CCOCC3)s2)cc1	nt	1.5	nt	7	nt
NS(=O)(=O)c1ccc(Cl)cc1[N+](=O)[O-]	nt	-4.4	nt	0	1%
Cc1ccc(-n2nnnc2SCC(=O)Nc2ncc(Cc3ccccc3Cl)s2)cc1	-9	-0.8	-28	-1	9%
Cc1ccccc1NCC(=O)N/N=C\c1ccc2c(c1)OCO2	-33	-3.0	nt	2	-7%
Cc1ccc(C)c(NC(=O)Cn2cc(C(=O)C3CC3)c3ccccc32)c1	nt	-0.9	nt	3	nt
Cc1ccc(C(=O)NNC(=O)C2CCN(c3ncccn3)CC2)cc1	nt	-0.4	nt	3	nt
Cc1nc2cc(NC(=O)Nc3nccs3)ccc2n1C	-1	3.3	-12	-2	-15%
CC1CC(C)CN(C(=O)Cn2nnc(-c3ccccc3)n2)C1 (configuration not stated)	nt	2.1	nt	-9	nt
O=S(=O)(c1ccccc1)c1nc(-c2ccccc2Cl)oc1NCCN1CCOCC1	5	nt	-2	-5	4%
N/C(=N\[N+](=O)[O-])N/N=C/c1ccc(O)cc1	3	-6.3	-32	-1	-4%
COc1ccc(CN2C(=O)C(Cc3ccccc3)Nc3ncnc(N4CCc5ccccc5C4)c32)cc1 (configuration not stated)	nt	35*	nt	5	nt
COc1ccc(S(=O)(=O)N2CCN(C(=O)c3c(-c4ccccc4)noc3C)CC2)cc1	-1	1.7	-21	-8	-2%
C#CCOCCOCCOCCNc1nc(N2CCN(C(=O)Cn3cc(CCCCN)nn3)CC2)nc(N2CCN(C(=O)Cn3cc(CCCCN)nn3)CC2)n1	-6	-2.5	-32	-9	-14%
Cc1cc(NC(=O)c2noc3c2CCCC3)no1	4	3.9	-5	-4	0%
Cn1c(=O)n(C)c2cc(NC(=O)CSc3ccccc3)ccc21	nt	-1.3	nt	2	nt
CC(=O)N1CCc2c(sc(NC(=O)Cc3ccc(F)cc3)c2C(N)=O)C1	nt	-1.6	nt	8	nt
CCS(=O)(=O)C(=C(Nc1ccc(OC)cc1)Nc1ccc(OC)cc1)S(=O)(=O)CC	3	-1.6	-20	-5	0%	Arbovirus inh repeat=3
COC(=O)c1ccc(C2c3c(oc4ccc(Cl)cc4c3=O)C(=O)N2CCN2CCOCC2)cc1 (configuration not stated)	nt	0.4	nt	3	nt
O=C(Nc1cccc2ccccc12)c1cc2c(cc1Br)OCO2	nt	3.9	nt	99	78%
COc1ccc(NC(=O)c2ccc(S(=O)(=O)N3CCCCCC3)cc2)c(OC)c1	nt	2.8	nt	7	-5%
CCOC(=O)C1=C(O)/C(=C/c2cc(OC)c(OC)c(OC)c2)N=C1C	1	-0.9	21	-13	-10%
COc1ccc(CNC(=O)CS(=O)Cc2nc(-c3ccccc3C)oc2C)cc1 (configuration not stated)	1	-5.0	nt	3	8%	Arbovirus inh repeat=-1
COC(=O)c1cn(CCOc2ccccc2)c2ccccc12	6	8.3	-24	4	-6%
COc1ccc2cc(CCNC(=O)C3CCCC3)c(=O)[nH]c2c1	3	1.7	-24	-4	2%	Arbovirus inh repeat=4
C[C@@]12C(=O)N(Cc3ccccc3)CC(=O)N1[C@H](/C=C/c1ccccc1)[C@@H]1C(=O)N(c3ccccc3)C(=O)[C@@H]12	nt	1.4	nt	-13	nt
CCCCC(=O)Nc1ccc2c(c1)nc(CCN1CCN(c3ccccn3)CC1)n2C	nt	-1.8	nt	-1	nt
O=C1CC2C(=O)NCCN2C(=NC(=O)c2ccc(Cl)cc2)N1 (configuration not stated)	19	0.6	nt	-5	1%
O=C(NN1CCOCC1)c1ccc(Cl)c([N+](=O)[O-])c1	nt	-1.9	nt	-6	nt
COc1ccc(S(=O)(=O)N(C)c2ccc(C(=O)N3CCCCC3)cc2)cc1OC	nt	1.0	nt	-9	-2%
O=C(CCSCc1cccc(Cl)c1)NCCC1=CCCCC1	-3	4.2	-26	-7	-10%
CN(C)c1ccc(NC(=O)CSc2nc3c(c(=O)[nH]2)CCCC3)cc1	12	-0.4	8	-8	2%
CCOC(=O)c1c(/N=C/C2=C(O)CC(C)(C)CC2=O)sc(C)c1C	-4	-2.4	-13	7	-4%
Oc1c(Cl)cc(Cl)c(Cl)c1Cc1c(O)c(Cl)cc(Cl)c1Cl	-44	43*	-35	4	13%
Cn1c(=O)n(C)c2cc(/C=C3/SC(=O)N(CC(=O)N4CCOCC4)C3=O)ccc21	-4	-12	-20	-2	-2%
O=c1c(Cl)c(N/N=C/c2ccc(Br)cc2)cnn1-c1ccccc1	-7	4.2	-1	85	nt
CCc1cc(C(=O)OCC(=O)N2CCC(c3ccccc3)=N2)sc1C	nt	-1.5	nt	37	nt
C=CCSc1nnc(NC(=O)c2ccc(Cl)nc2)s1	14	1.8	-30	34	40%
CN(C)CCNC(=O)c1cc(Sc2ccc(F)cc2)nc2ccccc12	-12	-0.1	nt	3	1%
CCCCCN1C(=O)Cn2c(nc3ccccc3c2=O)C1C (configuration not stated)	3	2.7	nt	-6	-1%

Three entries from above, arranged by molar mass, falling:
SMILES	Arbovirus inh	RecA intein inh	YopH PTP inh	Mtb betalactam	Mtb H37Rv	others
C[C@@]12C(=O)N(Cc3ccccc3)CC(=O)N1[C@H](/C=C/c1ccccc1)[C@@H]1C(=O)N(c3ccccc3)C(=O)[C@@H]12	nt	1.4	nt	-13	nt
COc1ccc(NC(=O)c2ccc(S(=O)(=O)N3CCCCCC3)cc2)c(OC)c1	nt	2.8	nt	7	-5%
O=C1CC2C(=O)NCCN2C(=NC(=O)c2ccc(Cl)cc2)N1 (configuration not stated)	19	0.6	nt	-5	1%

More compounds:
SMILES	Arbovirus inh	RecA intein inh	YopH PTP inh	Mtb betalactam	Mtb H37Rv	others
CC(=O)NC1(C(F)(F)F)C(=O)N(Cc2ccccc2)C2=C1C(=O)CC(C)(C)C2 (configuration not stated)	6	-4.4	11	6	-7%
O=C(c1cc(=O)c2ccccc2o1)N1CCN(c2cccc(Cl)c2)CC1	1	3.5	nt	2	7%
CCOC(=O)c1ccc(NC(=O)Nn2cnnc2)cc1	nt	1.0	nt	-3	nt
CC(C)Cc1nc2sc3c(=O)[nH]cnc3c2c2c1CCCC2	-5	-0.2	nt	0	5%
CCc1n[n+](CC(=O)c2ccccc2)c(N)s1	-5	nt	nt	nt	9%
Cc1cc(/C=C(\C#N)c2nc3ccccc3[nH]2)c(C)n1C	1	-8.2	-9	3	11%
CC1(C)CC(=O)C2=C(C1)N(Cc1ccco1)C(=O)C2(NC(=O)c1ccc(Cl)cc1Cl)C(F)(F)F (configuration not stated)	-7	0.0	17	0	-9%
Cc1ccc(NC2=NCCCCC2)cc1	-1	0.6	-5	11	-7%
CCOc1ccc(CCNC(=O)c2sc3nc4n(c(=O)c3c2C)CCC4)cc1OCC	nt	-0.1	nt	-8	nt
COc1ccc(/C=N/NC(=O)OC(C)(C)C)cc1OC	-2	-4.9	-21	-12	21%
Cc1ccc(CNC(=O)C2CC(c3cccc([N+](=O)[O-])c3)=NO2)cc1 (configuration not stated)	-3	0.5	9	-3	9%
COc1ccccc1C(=O)n1nc(-c2ccco2)nc1SC	1	-10	nt	7	5%
O=C(NCc1ccccc1)c1c[nH]c2ccc(F)cc2c1=O	nt	-0.7	nt	-17	nt
CCOC(=O)CCNc1n[nH]c(=O)[nH]c1=O	0	-1.3	-19	-2	-3%
COc1ccc(OC)c(NC(=O)c2cc(S(=O)(=O)N3CCCCC3)c[nH]2)c1	nt	-0.3	nt	-8	nt
N=c1n(CCN2CCCCC2)c2ccccc2n1CC(=O)c1cccs1	nt	-0.1	nt	-7	0%
COc1ccc(CNC(=O)C(c2ccc(C)o2)N(C(=O)c2snc(C(N)=O)c2N)c2ccccc2OC)cc1 (configuration not stated)	nt	36*	nt	-3	nt
COc1ccc(C2OCC3(CO2)SC(=O)NC3=O)cc1OC (configuration not stated)	7	-4.3	nt	-4	3%
COc1ccc(NC(=O)NCc2cccnc2)c(OC)c1	nt	5.8	nt	-2	nt
CCC(C)NC(=O)CN(c1ccc(OC)cc1)S(=O)(=O)c1ccc(NC(C)=O)cc1 (configuration not stated)	27	-0.3	-29	-1	-8%
COc1ccc(N2CCN(S(=O)(=O)c3ccc(C(=O)NCc4ccco4)cc3)CC2)cc1	2	0.3	-12	-3	7%
Cc1ccc(S(=O)(=O)N2CCN(C(=O)COC(=O)c3c(C)cc(C)cc3C)CC2)c(C)c1	nt	4.0	nt	-5	nt
O=C(N/N=C/c1cc(Br)c(O)c([N+](=O)[O-])c1)C(O)(c1ccccc1)c1ccccc1	nt	1.5	nt	1	nt
Cn1c(CNC(=O)c2ccco2)nnc1SCC(=O)Nc1ccc(Br)cc1F	-4	1.3	-19	0	1%
CCc1nnc(NC(=O)c2cccc(OC)c2)s1	7	4.3	8	-10	0%
CCN(CC)CCCNS(=O)(=O)c1ccc(OC)cc1	1	-0.3	2	-3	-6%
CC(=O)c1c(C(C)=O)c(C)n(Cc2ccccc2)c1C	2	-1.0	-48	4	-5%

Some of the compounds tested; rates above refer to the full screens.
